Screening results as filed in PubChem.
CDC25B-CDK2 inh = primary biochemical HTRF screen for blockers of M-phase inducer phosphatase 2 binding to CDK2/cyclin A; P30305+P24941; HTRF CDC25B-CDK2/CyclinA binding, anti-His/anti-Flag; stronger effect = higher value; z-score (concentration not given with the values); 94,000 tested, 0.72% active; AID 1259370, 2018;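 further: score is relative to mean and SD of negative controls; strong numbers were not always called active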
HIV TAR-Tat = TAR RNA-Tat peptide displacers, HIV-1, primary screen, biochemical, FRET, FAM/TAMRA-labeled Tat. HIV-1 TAR RNA, Tat peptide displacement FRET; stronger effect = higher value. z-score (no concentration beside the values). 100,000 tested, 0.6% active;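 further: score is relative to mean and SD of negative controls; some compounds called inactive have numbers as strong as hits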
* hit, by the source's call; / = not tested or not shown.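 How the source made its calls: active means z-score from 3 up in half or more of its runs; inactive means the rest.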

molecule | HIV TAR-Tat | CDC25B-CDK2 inh
Cc1cccc(OCc2nc(-c3cccnc3)no2)c1 | / | -1.1
Cc1ccccc1C1CC(=O)NC2=C1C(=O)CC(C)(C)C2 (stereo not drawn) | 0.89 | 1.4
CCN(CC)Cc1cc(O)c(CN(CC)CC)cc1O | -0.75 | -0.87
COC(=O)C1=CN(Cc2cccs2)C=C(C(=O)OC)C1c1ccc(Cl)c(F)c1 | / | -2
NC(=O)C1CCN(c2csc3ccc(Cl)cc3c2=O)CC1 | 0.83 | /
O=C(Nc1ccc(Oc2ccccc2)cc1)C1=Cc2ccccc2OC=C1 | 0.31 | -0.49
CN1CCSc2ccc(C(=O)NC3CCCCC3)cc21 | 0.15 | -4.2
CCN(C1CCS(=O)(=O)C1)S(=O)(=O)c1ccc(OC)cc1 (stereo not drawn) | 0.88 | -1.6
Cc1cccc(Nc2nc3ccc(Cl)cc3n3cnnc23)c1 | -2.2 | -0.95
Brc1ccc(C2=Nn3c(Cc4ccccc4)nnc3SC2)cc1 | 1.2 | /
CCC(Cc1ccccc1)NS(=O)(=O)c1c(C)nc2scc(C)n2c1=O (stereo not drawn) | 1.3 | -1.8
Cc1ccc2oc(SCC(=O)NCc3ccc4c(c3)OCO4)nc2n1 | 12 | /
Cc1cc(/C(N)=N/OC(=O)Nc2cccc(C(F)(F)F)c2)no1 | / | -2.2
O=C(NC(=S)Nc1ccc(-c2nc3ccccc3o2)c(O)c1)c1ccc(Cl)cc1 | / | -2.4
COc1ccc(-c2noc(CSc3nnc(-c4ccccc4)n3C)n2)cc1OC | 2 | -1.2
CC1CSc2ccc(S(=O)(=O)Nc3cccc(Cl)c3)cc2NC1=O (stereo not drawn) | 0.18 | /
CCOC(=O)CCn1c(=S)n(CCC(=O)OCC)c2ccccc21 | / | -0.99
COc1ccc(-c2cc(C(=O)OCC(=O)c3cccc([N+](=O)[O-])c3)c3ccccc3n2)cc1 | / | -6.2
COc1ccc(NC(=O)CSc2nc3c(sc(=S)n3-c3ccccc3)c(=O)[nH]2)c(OC)c1 | 0.81 | /
O=C(CCCc1nc(-c2ccco2)no1)Nc1ccccc1F | -0.09 | 1.2
COC(=O)c1ccc(COc2ccc3c(c2)oc(=O)c2cc(OC)ccc23)o1 | 1.4 | 1.3
CC1(C)C(=O)OC2(c3ccc(Cl)cc3)C1OC(=O)C2(C)C (stereo not drawn) | / | -1.4
C#CCOc1ccc(C(=O)OCC)cc1 | / | 0.49
CC(C)c1ccc(NC(=O)CN(c2ccc(Br)cc2)S(C)(=O)=O)cc1 | / | 0.27
CCOC(=O)c1ccc(OCc2nc(-c3ccc(Br)cc3)no2)cc1 | -0.14 | -0.53
Cc1ccc(OC(=O)CN2C(=O)c3ccccc3C2=O)c(-n2nc3ccccc3n2)c1 | / | 0.63
CCOC(=O)c1cnc(SC)nc1-c1ccccc1 | 2.8 | /
O=C(CCC(=O)n1ncc2cc(Cl)ccc21)NC1CCCC1 | -0.92 | -0.82
O=C(NC1CCCCC1)C1CCCN(S(=O)(=O)c2cccc3cccnc23)C1 (stereo not drawn) | 1.3 | 0.88
Cc1cc(N2CCN(c3ccc(F)cc3)CC2)nc2cc(O)ccc12 | 0.58 | -1.1

The list goes on; the last 6 above are carried over.
molecule | HIV TAR-Tat | CDC25B-CDK2 inh
CCOC(=O)c1ccc(OCc2nc(-c3ccc(Br)cc3)no2)cc1 | -0.14 | -0.53
Cc1ccc(OC(=O)CN2C(=O)c3ccccc3C2=O)c(-n2nc3ccccc3n2)c1 | / | 0.63
CCOC(=O)c1cnc(SC)nc1-c1ccccc1 | 2.8 | /
O=C(CCC(=O)n1ncc2cc(Cl)ccc21)NC1CCCC1 | -0.92 | -0.82
O=C(NC1CCCCC1)C1CCCN(S(=O)(=O)c2cccc3cccnc23)C1 (stereo not drawn) | 1.3 | 0.88
Cc1cc(N2CCN(c3ccc(F)cc3)CC2)nc2cc(O)ccc12 | 0.58 | -1.1
Cn1nnnc1SCCNCc1cc(Cl)ccc1OCc1ccccc1Cl | 1.7 | -0.43
C=C[C@@](C)(O)CC[C@@H]1[C@@]2(C)CCCC(C)(C)[C@@H]2CC[C@@]1(C)O | 0.95 | /
CS(=O)(=O)c1ccc(-c2ccc(NS(=O)(=O)c3cccc(F)c3)cc2)nn1 | 0 | /
O=C(c1noc2c1CCc1sccc1-2)N1CCC(N2CCCCC2)CC1 | -0.3 | /
CC(C)CCNC(=O)C1(C)Cn2c(ccc2-c2ccco2)C(=O)N1CCN1CCOCC1 (stereo not drawn) | -6.6 | /
CC(C)Nc1cc(N2CCN(C)CC2)c2noc3c2c1C(=O)c1ccccc1-3 | 9.7* | 1.5
CCCc1nc(SCc2cc(=O)c3cc(F)ccc3[nH]2)n[nH]1 | 0.3 | /
COC(=O)c1ccc(S(=O)(=O)NCc2ccc3c(c2)OCO3)n1C | / | -0.18
CC(Cc1ccco1)NS(=O)(=O)c1ccc2c(c1)CCCC(=O)N2 (stereo not drawn) | -0.87 | /
CCOC(=O)c1cnc(N)nc1C(F)(F)F | / | -1.6
Cc1oc2ncnc(N3CCCCC3)c2c1C(=O)NCc1ccco1 | -0.59 | /
COc1ccc(S(=O)(=O)N2CCN=C2SC)cc1 | 1.8 | -1.8
O=C1NN=C2C3CC4=NNC(=O)C4C(C3)CC12 (stereo not drawn) | / | -1.5
COc1ccc(C2=Cc3ccccc3C(C)(C)O2)cc1 | -1.7 | -1.1
CC1CN(c2nc3ccccc3nc2SCC(=O)NCc2ccco2)CC(C)O1 (stereo not drawn) | -0.89 | -0.5
Cc1ccccc1-c1nc(-c2cccnc2)no1 | -0.37 | -1.2
Cc1ccc(-n2nnc(C(=O)O)c2C)cc1Cl | 1.8 | 0.97
CC(C)c1nc2ccccc2n1C1CC(=O)N(c2ccc(Cl)cc2)C1=O (stereo not drawn) | / | -1.4
CCCN1C(=O)C(O)(CC(=O)c2ccc(C(C)(C)C)cc2)c2cc(Br)ccc21 (stereo not drawn) | 1.9 | 1.7
CCOC(=O)c1cc(CSc2nnc(SC)s2)on1 | / | -1.9
CC(=O)c1ccc(N2CCN(C(=O)c3ccc4c(Cl)c5c(nc4c3)CCC5)CC2)cc1 | / | -1.8
COc1cccc(C(=O)NNC(=O)c2ccccc2[N+](=O)[O-])c1 | / | -1.6
Cc1c(CNCCC2=CCCCC2)c(C(=O)O)c(C)n1-c1ccccc1 | 0.16 | /
CS(=O)CC(O)(c1ccc(Cl)cc1)c1ccc(Cl)cc1 (stereo not drawn) | / | -0.25
CC1=C(/C=C/C(C)=C/C=C/C(C)=C/C(=O)O)C(C)(C)CCC1 | 3.1 | -0.81
CCOC(=O)c1c(C)oc2nc(C)nc(NCCCN(CC)c3ccccc3)c12 | 0.38 | /
CN(CCNC(=O)CN1C(=O)COc2ccc(S(=O)(=O)N3CCOCC3)cc21)C1CCCCC1 | 2.3 | -0.4
CCOC(=O)c1cc(CSc2nc3ncccc3[nH]2)on1 | -0.74 | /
COc1cccc(C2CC(c3ccc(OCc4ccccc4)cc3)n3ncnc3N2)c1 (stereo not drawn) | 0.4 | -0.94
O=C(c1ccccc1)c1cn(Cc2ccccc2)c2cc3c(cc2c1=O)OCO3 | / | -1.1
Cc1noc(C)c1CCCNS(=O)(=O)c1ccc2c(c1)C(C)(C)C(=O)N2C | 0.05 | /
CN1CCN(c2nc(N)c([N+](=O)[O-])c(Nc3cccc(Cl)c3)n2)CC1 | 0.43 | /
COc1ccc(OC)c(Nc2nc(-c3ccncc3)cs2)c1 | 2 | 0.71
CCC(C)OC(=O)c1[nH]c2c(c1C)C(=O)CC(c1ccc(N(C)C)cc1)C2 (stereo not drawn) | 1.2 | 0.07
CC1=C(C(=O)Nc2ccccc2C(=O)NC(C)c2ccc3c(c2)OCCO3)SCCO1 (stereo not drawn) | 1.2 | /
CCCC1=NN2C(=N)/C(=C/c3ccc(OC(=O)c4cccs4)c(OC)c3)C(=O)N=C2S1 | / | -0.19
NCCn1c(-c2ccc(F)cc2)nc2ccccc21 | -0.19 | /
Brc1ccc(-c2nn[nH]n2)cc1 | -0.8 | -1.2
CCC(=O)Nc1ccc(OCc2cc(=O)n3c(C)csc3n2)cc1 | -0.04 | 0
CCOC(=O)N1CCC(Nc2c(NCCCN3CCCC(C)C3)c(=O)c2=O)CC1 (stereo not drawn) | -1.2 | -1.3
CC1C(=O)N2CCCc3cc(S(=O)(=O)Nc4ccccc4)cc1c32 (stereo not drawn) | 2 | /
COc1ccc(C2CC(=O)C3=C(C2)Nc2ccccc2NC3c2coc3ccccc3c2=O)cc1OC (stereo not drawn) | 2.6 | -0.49
CCOC(=O)c1ccccc1NC(=O)CN(c1ccc(OC)c(Cl)c1)S(C)(=O)=O | / | 0.03
CCS(=O)(=O)c1ccc(C(=O)Nc2sc3c(c2C(N)=O)CCC3)cc1 | 1.3 | /
CCOc1ccc(S(=O)(=O)N2CN3CCN(C3)C2)cc1 | 2.7 | -1.5
CCOc1ccc(C2C(C(=O)OC3CCCC3)=C(C)NC3=C2C(=O)CCC3)cc1 (stereo not drawn) | 0.84 | 0.18
NS(=O)(=O)c1ccc(Nc2nc(-c3cccnc3)cs2)cc1 | 4 | 0.03
Cc1ccc(Nc2cc(C)nc(-n3nc(C)cc3C)n2)cc1 | 0.47 | /
CC1CCCN(c2nn3c(=O)c(C(=O)N4CCN(c5ccc(F)cc5)CC4)cnc3s2)C1 (stereo not drawn) | -0.67 | /
Cc1ccc(NS(=O)(=O)N(C)C)cc1 | / | -2.3
CN(C(=O)c1nn(C)c2c1COc1ccccc1-2)c1ccc(F)cc1 | 0.84 | 0.73
CCOC(=O)c1sc(Nc2nc(OC)cc(OC)n2)nc1C | 2.2 | 0.85
CN=C(C)/C(C(=O)OC)=C(\O)c1ccc(C(F)(F)F)cc1 | / | -1.5
CCCCCCNCC1OCc2ccccc2CO1 | / | -1.2
CN(CC(=O)Nc1ccc(F)c(Cl)c1)S(=O)(=O)c1ccc2c(c1)CCC(=O)N2 | / | 0.94
C=CCNC(=O)C1Cc2ccccc2N1C(=O)c1ccccc1 (stereo not drawn) | 1.5 | /
Cc1ccc2nc(NCc3ccc(F)cc3)c3nncn3c2c1 | 0.01 | -0.51
Cc1ccsc1CCNc1c(-c2ccc(Cl)cc2)c(=O)c1=O | 0.82 | /
CCN1C(=O)C2CCCN2c2ccc(C(=O)O)cc21 (stereo not drawn) | 1.5 | /
Cc1cc(C)n(-c2cc(N3CCN(c4cccc(C)c4C)CC3)ncn2)n1 | 1.4 | /

Three compounds out of the list, arranged by number of heavy atoms, falling.
molecule | HIV TAR-Tat | CDC25B-CDK2 inh
Cc1noc(C)c1CCCNS(=O)(=O)c1ccc2c(c1)C(C)(C)C(=O)N2C | 0.05 | /
CN=C(C)/C(C(=O)OC)=C(\O)c1ccc(C(F)(F)F)cc1 | / | -1.5
CCOc1ccc(S(=O)(=O)N2CN3CCN(C3)C2)cc1 | 2.7 | -1.5

The results go on:
molecule | HIV TAR-Tat | CDC25B-CDK2 inh
Cc1cccnc1-n1c(C)c(C)c2c1ncn1nc(-c3ccncc3)nc21 | -0.65 | -1.6
CCc1nn2c(-c3ccccc3OC)ccnc2c1-c1ccccc1 | 0.82 | -0.46
O=C(NCc1ccc2c(c1)OCO2)c1cc2c(s1)CSC2 | -0.26 | -1.6
CCC(=O)Nc1nc2cc(NS(=O)(=O)c3c(C)nn(C)c3C)ccc2s1 | 0.93 | /
O=C(Nc1nnc(SCc2cc(=O)n3c4c(sc3n2)CCCC4)s1)c1ccco1 | 1 | /
CCCCCc1ccc(S(=O)(=O)Nc2cnc3ccccc3c2)cc1 | 0.99 | -1.8
O=C(NCc1ccccn1)C1CCC(c2ccc(Cl)cc2)CC1 (stereo not drawn) | / | -0.64
CC(=O)OCc1c(OC(C)=O)ccc2c([N+](=O)[O-])c(C)n(-c3ccc(C)cc3)c12 | 0.95 | -0.18
CC1COC(c2cccn2Cc2ccc(F)cc2Cl)=N1 (stereo not drawn) | 0.69 | /
CCN(CC)S(=O)(=O)C1CCS(=O)(=O)C1 (stereo not drawn) | 2.1 | -2.4
Clc1ccc(-c2cnnc(-c3ccccc3)n2)cc1 | -0.33 | -1.2
COc1ccc2c(c1)CN(Cc1ccccc1)CO2 | 2.2 | -1.2
CC1=C(C(=O)Nc2c(F)cc(F)cc2Br)C2(CCCCC2)OC1=O | -0.75 | -0.27
COC(=O)c1ncn2c1C(=O)N(C1CC1)C(C)(C(=O)NC1CCCC1)C2 (stereo not drawn) | 0.66 | /
Cc1cc(C)cc(NS(=O)(=O)c2ccc3c(c2)S(=O)(=O)N=CN3)c1 | -0.58 | /
CC(O)Cc1nsc(NC(=O)c2cccc(Cl)c2)n1 (stereo not drawn) | / | -0.42
Cc1ccc(S(=O)(=O)c2cnc3ccccc3c2N2CCOCC2)cc1 | 1.3 | -1.4
O=C(NNC(=O)c1ccc(Oc2cc(Cl)cc(Cl)c2)o1)c1ccccc1 | / | -1.6
N/C(=N\OC(=O)c1sccc1Cl)c1ccc(Cl)cc1 | / | -0.57
CCOc1ccc(N2C(=O)c3c(C)nc4ccccc4c3C2=O)cc1 | 0.63 | 6.8
COc1ccc(NS(=O)(=O)c2cc(-c3cc(C)no3)ccc2C(C)C)cc1OC | 0.46 | /
O=C1CC(c2ccc(Cl)cc2)CC2=C1C(c1cccc(F)c1)Nc1ccccc1N2 (stereo not drawn) | / | -2.1
O=C(Cn1c(-c2cccs2)cc2ccccc21)NC1CCCC1 | -0.55 | -1.3
Cc1cccc(Nc2ncnc3c2cnn3-c2ccc(Cl)cc2)c1 | / | -0.28
Cc1ccc(-c2onc(C)c2C)cc1S(=O)(=O)NCc1ccccc1 | 1.2 | /
O=C(CC1CCCCC1)Nc1cccc2nsnc12 | -1.8 | /
COc1cc2c(cc1OC)C(c1cc(OC)c(O)c(OC)c1)CC(=O)N2 (stereo not drawn) | / | -0.79
